Source: PubChem (Fisher Drug Discovery Resource Center)
NPYLR7 agonist: activates Aedes aegypti NPYLR7 receptor | HEK293T NPYLR7/Galpha15, GCaMP6s calcium fluorescence | activation, % at 10 µM | hit rate 0.15% among 270,000 | AID 1259423; in the data active = activation above about 40%;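 note: 0% = vehicle and 100% = reference agonist at the receptor; some compounds past the cut are filed as inactive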
NPYLR7 agonist max-min: second read-out of NPYLR7 agonist, no call of its own (marks repeat the call); activation, %; measured here: Max-Min RFU normalised activation; some inactives read as strong as hits;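 span of the calcium signal over five minutes; 0% = vehicle and 100% = native peptide agonist; compound fluorescence can raise it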
* marks the source's active call; other numbers are inactive results. This is a subset; rates above refer to the full screens.

SMILES	NPYLR7 agonist	NPYLR7 agonist max-min
Cc1ccc(NC(=O)Nc2ccc(N3CCCC3)c(C(=O)NCCc3ccccc3)c2)cc1	3	11
CSc1ncc(Nc2nc(C)cs2)cn1	-5	-3
CN(C)C(CNC(=O)NCCCn1nc2n(c1=O)CCCC2)c1cccc(F)c1 (configuration not stated)	-1	12
CCOCCCNC(=O)c1c(O)nc2ccccn2c1=O	-2	17
COc1cccc2sc(N(Cc3ccco3)C(=O)c3cc(C)nn3C)nc12	5	3
CCOc1ccccc1-n1c(C)cn2c3c(=O)n(CC(=O)C(C)(C)C)c(=O)n(C)c3nc12	9	2
CCCC1=C(C(=O)OCC)C(c2cccc(OC)c2OC)NC(=S)N1 (configuration not stated)	4	1
CCOc1cc(Nc2ccc(NC(=O)CC(C)C)cc2)nc(C)n1	8	0
CC(NC(=O)CSc1nc2ccccc2[nH]1)c1ccccc1 (configuration not stated)	-6	-10
COc1cc(=O)n(-c2ccccc2C)nc1C(=O)Nc1cc(F)ccc1F	-6	-6
COc1cc(C)ccc1OCCOc1ccc([N+](=O)[O-])cc1	-2	-3
Cc1cnn(CCC(=O)OC2CCN(c3ccc(Cl)nn3)CC2)c1	1	0
Oc1cncc(Cc2ccccc2)c1	2	0
COc1ccc(NC(=O)CCN(Cc2ccco2)c2nc(C3CC3)nc3ccccc23)cc1	-3	11
O=C(NCc1cccnc1-n1cccn1)C1CCCN(Cc2cccnc2)C1 (configuration not stated)	6	2
CN(CC(=O)NC1(c2cccc(Br)c2)CCC1)S(=O)(=O)c1cccs1	-1	-1
CC(=O)N1CCC2(CC1)OCc1cc(-c3cccc(CO)c3)ccc1O2	-2	-9
O=C(CCNc1ccccc1-c1ccccc1)OCc1ccccc1	6	2
CCCn1c(SCCOc2ccccc2OC)nc2ccccc21	-6	-22
CCOC(=O)c1ccc(Oc2nc(SC)nc(N(C)C)n2)cc1	-2	-2
O=S(=O)(Oc1cc(Cl)ccc1-c1nc2cc(Cl)ccc2o1)c1ccc(F)cc1	13	15
Cc1cc(C(=O)N(Cc2ccccc2)c2nc3c(F)cc(F)cc3s2)nn1C	7	5
CCc1ccc(-n2c(C(CC)N(CCc3ccc(OC)c(OC)c3)C(=O)c3ccc(F)cc3)nc3ccccc3c2=O)cc1 (configuration not stated)	-3	-1
COc1ccc(OC)c2sc(N(CCCN3CCOCC3)C(=O)c3cc(C)no3)nc12	0	3
COCCNC(=O)Cn1c(=O)n(-c2ccc(C)c(C)c2)c(=O)c2ccc(Cl)cc21	-3	2
CCN(CC)C(=O)Oc1ccc2c(ccn2Cc2ccc(Cl)cc2)c1NC(=O)C(C)Cl (configuration not stated)	-1	5
Cc1ccc(S(=O)(=O)NC(=O)C(C)NS(=O)(=O)c2c(C)nn(C)c2C)c(C)c1 (configuration not stated)	2	2
COc1ccccc1CCNC(=O)c1cncn1-c1cccc(-c2cc(Cl)ccc2OC)c1	0	-2
COc1ccc(Cl)cc1NC(=O)CSc1nc(=O)n(CCCN2CCOCC2)c2c1CCC2	-5	-8
COCCn1c(=NC(=O)c2ccc3ncsc3c2)sc2cc(OC)c(OC)cc21	2	0

At a glance, 22 of the compounds above:
SMILES	NPYLR7 agonist	NPYLR7 agonist max-min
Cc1ccc(NC(=O)Nc2ccc(N3CCCC3)c(C(=O)NCCc3ccccc3)c2)cc1	3	11
CSc1ncc(Nc2nc(C)cs2)cn1	-5	-3
CN(C)C(CNC(=O)NCCCn1nc2n(c1=O)CCCC2)c1cccc(F)c1 (configuration not stated)	-1	12
CCOCCCNC(=O)c1c(O)nc2ccccn2c1=O	-2	17
COc1cccc2sc(N(Cc3ccco3)C(=O)c3cc(C)nn3C)nc12	5	3
CCOc1ccccc1-n1c(C)cn2c3c(=O)n(CC(=O)C(C)(C)C)c(=O)n(C)c3nc12	9	2
CCCC1=C(C(=O)OCC)C(c2cccc(OC)c2OC)NC(=S)N1 (configuration not stated)	4	1
CCOc1cc(Nc2ccc(NC(=O)CC(C)C)cc2)nc(C)n1	8	0
CC(NC(=O)CSc1nc2ccccc2[nH]1)c1ccccc1 (configuration not stated)	-6	-10
COc1cc(=O)n(-c2ccccc2C)nc1C(=O)Nc1cc(F)ccc1F	-6	-6
COc1cc(C)ccc1OCCOc1ccc([N+](=O)[O-])cc1	-2	-3
Cc1cnn(CCC(=O)OC2CCN(c3ccc(Cl)nn3)CC2)c1	1	0
Oc1cncc(Cc2ccccc2)c1	2	0
COc1ccc(NC(=O)CCN(Cc2ccco2)c2nc(C3CC3)nc3ccccc23)cc1	-3	11
O=C(NCc1cccnc1-n1cccn1)C1CCCN(Cc2cccnc2)C1 (configuration not stated)	6	2
CN(CC(=O)NC1(c2cccc(Br)c2)CCC1)S(=O)(=O)c1cccs1	-1	-1
CC(=O)N1CCC2(CC1)OCc1cc(-c3cccc(CO)c3)ccc1O2	-2	-9
O=C(CCNc1ccccc1-c1ccccc1)OCc1ccccc1	6	2
CCCn1c(SCCOc2ccccc2OC)nc2ccccc21	-6	-22
CCOC(=O)c1ccc(Oc2nc(SC)nc(N(C)C)n2)cc1	-2	-2
O=S(=O)(Oc1cc(Cl)ccc1-c1nc2cc(Cl)ccc2o1)c1ccc(F)cc1	13	15
Cc1cc(C(=O)N(Cc2ccccc2)c2nc3c(F)cc(F)cc3s2)nn1C	7	5

Other entries.
SMILES	NPYLR7 agonist	NPYLR7 agonist max-min
Cc1cccc(C(=O)N2CCSC23CCN(C(=O)c2ccc([N+](=O)[O-])cc2)CC3)c1	7	20
CCn1nc(C)c(CN(CCOC)C(=O)c2cccc3c2OCC3)c1C	19	11
O=C(Cc1cccs1)Nc1c2c(nn1-c1ccc([N+](=O)[O-])cc1)CSC2	-4	-4
CCCc1nc2ccc(NC(=O)COc3ccccc3)cn2n1	5	-1
COC(=O)c1cccc(CC2(C)C(=O)Nc3ccc(-c4ccccc4OC)cc32)c1 (configuration not stated)	-2	5
CCOC(=O)[C@H]1C[C@]2(CCCCNC2=O)N(C(=O)c2ccc3c(c2)OCO3)[C@H]1c1ccco1	2	8
COc1ccc(CC(N)c2csc(Nc3cc(Oc4ccccc4)ncn3)n2)cc1 (configuration not stated)	-4	-8
C[C@@H](NC(=O)C1CC=CCC1C(=O)N1CCN(c2ccccn2)CC1)C(C)(C)C (some centres not stated)	-9	-18
O=[N+]([O-])c1cc(S(=O)(=O)NN=C2CCc3ccccc32)ccc1Cl	3	42
CC(C)C(NC(=O)N(C)Cc1ccccc1)c1ccc2c(c1)OCCCO2 (configuration not stated)	4	3
c1ccc2sc(CSc3ncnc4sccc34)nc2c1	5	6
Cc1cccc(-c2nc3ccc(C)cn3c2NC(C)(C)CC(C)(C)C)c1	5	9
COc1ccc(S(=O)(=O)N(C)C)cc1NC(=O)C1(c2cccc(C)c2)CCC1	1	1
COCCN1C(=O)N(c2ccc(F)cc2)C(=O)C1CC(=O)NCc1ccccc1 (configuration not stated)	0	7
CCCCN(Cc1cccnc1)C(=O)c1ccccc1C1CCNC1 (configuration not stated)	-2	-10
CC(C)=CCN1CCN(CC(=O)N2CCOCC2)CC1	7	3
Cn1ccnc1CN(Cc1ccncc1)C[C@@H]1CCC(=O)N1	0	4
COc1cc(-c2nc3ccc(NC(=O)Nc4ccc(OC(F)(F)F)cc4)cn3n2)cc(OC)c1OC	10	0
CC(C)n1ccc(CCNC(=O)c2cc(F)ccc2O)n1	3	2
Cc1cc(C)cc(NC(C)C(=O)N(C)Cc2ccccc2)c1 (configuration not stated)	-3	-3

Entries shown so far containing a tert-butyl group:
SMILES	NPYLR7 agonist	NPYLR7 agonist max-min
CCOc1ccccc1-n1c(C)cn2c3c(=O)n(CC(=O)C(C)(C)C)c(=O)n(C)c3nc12	9	2
C[C@@H](NC(=O)C1CC=CCC1C(=O)N1CCN(c2ccccn2)CC1)C(C)(C)C (some centres not stated)	-9	-18
Cc1cccc(-c2nc3ccc(C)cn3c2NC(C)(C)CC(C)(C)C)c1	5	9

The list continues:
SMILES	NPYLR7 agonist	NPYLR7 agonist max-min
Cc1ccc2nc(NC(=O)c3ccc4c(c3)OCCO4)sc2c1	0	6
Fc1ccccc1-c1nc(N2CCc3ccccc3C2)c2ccccc2n1	1	1
CCOC(=O)C1CCCN(C2CCN(c3ccc(NC(=O)COc4ccccc4)cc3)CC2)C1 (configuration not stated)	1	-4
Cc1ccc(NS(=O)(=O)c2cc(C(=O)Nc3ccc(C(=O)O)cc3)ccc2C)cc1	3	-2
CSCCC(C)NC(=O)NCC(C)(O)c1ccc(C)o1 (configuration not stated)	4	5
CCn1c(C2CCCN(C(=O)CC3=CCNCC3)C2)nn(C)c1=O (configuration not stated)	-1	-3
Cc1cccc(-n2nc(SCC(=O)NC(C)(C)C)sc2=S)c1	-2	2
O=C1NC2(CCOc3ccccc32)C(=O)N1CCN1C(=O)c2ccccc2C1=O (configuration not stated)	7	10
Cc1cc(C)n(Cc2cc(C(=O)NCCC3CCCCO3)n[nH]2)n1 (configuration not stated)	4	6
Cc1nc(-c2cccc(NS(=O)(=O)c3ccccc3C(F)(F)F)c2)cs1	3	2
COc1ccc(-n2cnnc2CN2CCN(c3ccc(F)cc3)CC2)cc1	-1	-7
CN(CC(=O)Nc1cccc2ccccc12)C(=O)COc1cccc(F)c1	-4	-6
CCN1CCN(CCCCNS(=O)(=O)c2ccc(F)cc2)CC1	0	7
Cc1ccc(C#N)cc1NC(=O)NCCc1cccs1	0	-4
CC1CCCCN1C(=O)CSc1nnc(C2CCS(=O)(=O)C2)o1 (configuration not stated)	1	7
Cc1ccc(C(=O)N(CCCN)[C@@H](c2nc3cc(Cl)ccc3c(=O)n2Cc2ccccc2)C(C)C)cc1	-11	-15
C(=NNC1=Nc2cccc3cccc1c23)c1ccccc1	6	4
COc1ccc(Cl)cc1N1CCN(C(=O)c2ccco2)C(C)C1=O (configuration not stated)	-2	10
O=C1c2ccccc2C(=O)N1CN(C(=O)c1ccccc1)c1ccc(O)cc1	7	4
O=C(CC1CCS(=O)(=O)C1)Nc1cnc(-c2cccc(O)c2)nc1 (configuration not stated)	-3	-7
CN1C(=O)CC(C(=O)Nc2ccccc2F)SC1=Nc1cccc(F)c1 (configuration not stated)	4	2
CCOc1cc(-n2ncc(OCC)c(Cl)c2=O)nc(SC)n1	7	6
CCCc1nnc(-c2cc3ccccc3n2CC(=O)Nc2cccc(OC)c2)o1	-1	-3
C=Cc1ccc(CN2C(=O)C(C)Oc3ccc(C#N)cc32)cc1 (configuration not stated)	8	5
Cc1cc(C)c(C)c(S(=O)(=O)Nc2ccccc2N2CCN(C)CC2)c1C	1	1
Cc1ccc2c(c1)C(=O)NC1(CCN(C(=O)Nc3cccc(C(F)(F)F)c3)CC1)N2	-2	11
CCN(CC)c1c(C)nc2ccc(C(=O)N(C)CCN(C)C)cn12	-3	-13
CC(C)N1CCCC(C)(C(=O)Nc2cccc3c2CCCC3)C1 (configuration not stated)	2	1
O=S(=O)(NCC1CCN(Cc2ccc3ccccc3n2)C1)C1CC1 (configuration not stated)	-3	-4
FC(F)(F)c1cccc2c(NCc3cccnc3N3CCOCC3)ccnc12	3	0
CC(=O)Nc1ccc(OC/C=C/c2ccccc2)cc1	0	0
CC(=O)N1CCCN(C2CCN(c3ccc(NC(=O)CCc4ccccc4)cc3)CC2)CC1	1	-6
CC(=O)N1CCCN(Cc2cn(-c3cc(C)ccc3C)nc2-c2ccccc2)CC1	16	0
CC1=C(C(=O)OC2CCCCCC2)C(c2ccccc2I)NC(=O)N1C (configuration not stated)	0	-2
O=C(NC(C1CC1)C1CC1)c1cc(Cl)c2c(c1)OCO2	2	0
CCC(=O)Nc1sc2c(c1C(=O)Nc1cccc3ccccc13)CCC(C)C2 (configuration not stated)	-3	-3
O=C1OC(Nc2ccccn2)c2ccccc21 (configuration not stated)	3	3
Cc1cc(C)cc(COc2coc(CN3CCN(S(=O)(=O)c4ccc(C#N)cc4)CC3)cc2=O)c1	16	8
O=C(Nc1c(-c2ccc(Cl)cc2)nc2ccccn12)C1CCCC1	-5	-6
Cn1c(-c2cccs2)nn(CCNC(=O)c2ccccc2SC(F)F)c1=O	3	0
CCOC(=O)C1(C)CCCCN1C(=O)c1cc(C)n(C(C)(C)C)n1 (configuration not stated)	-3	-4
CCn1c(N2CCN(CC(N)=O)CC2)nc2c1c(=O)[nH]c(=O)n2C	2	4
Cc1cccc(N2CCN(C(=O)c3n[nH]c(C)c3Br)CC2)c1	-2	-8
CCN(Cc1nccn1C)C(=O)c1ccc(N2CCN3CCCC3C2)nc1 (configuration not stated)	2	2
Oc1ccccc1CNCC12CCC3CC(CC(C3)C1)C2	-11	-20
C=CCC(CC(=O)O)C(=O)Nc1cccc(-c2ccnc(C)n2)c1 (configuration not stated)	-7	-10
CC(C)c1cc(C2CCN(Cc3nccn3C)CC2)[nH]n1	1	6
O=C(c1ccccc1)c1ccc2c(c1)N=C1CCCC(=O)C1C(c1ccc(Cl)cc1)N2 (configuration not stated)	-9	-17
CN1CCc2[nH]nc(C(=O)NCc3ccccc3-n3cncn3)c2C1	4	3
Cc1cc(-n2c(C)nc3ccccc3c2=O)ccc1NC(=O)Nc1cccs1	-8	-10

Continuation.
SMILES	NPYLR7 agonist	NPYLR7 agonist max-min
COc1ccc(N2CCC(NC(=O)/C=C/c3ccco3)CC2)cc1	-1	-1
CC(NC(=O)c1ccc(=O)n(C)c1)c1nc(C(C)(C)C)cs1 (configuration not stated)	4	2
Cc1cc(C)c(S(=O)(=O)Nc2ccc(-c3ccc4nnc(C)n4n3)cc2)cc1C	-11	-4
O=C(CN(C(=O)Nc1ccccc1Br)C1CCCCC1)N(Cc1ccc(F)cc1)Cc1cccs1	0	-9
O=C(NC1CC1)c1coc(CN(CCN2CCOCC2)Cc2cccc(F)c2)n1	14	9
Cc1cc(C(=O)N2CCC2(C)C(=O)Nc2cccc3ncccc23)nn1C (configuration not stated)	9	10
COc1cc2c(cc1-c1nccn1CCc1cccc(F)c1)OCO2	3	1
Cc1nc2ccc(C(=O)N3[C@@H]4CC[C@H]3CNC(=O)C4)cc2nc1C	16	0
